miR-21 reporter – raises the signal of a miR-21 reporter; Potency, µM (titrated, usually from 38.3 µM), without a hit: at the highest dose reporter change, positive = more light; HeLa miR-21 FLuc reporter, luciferase, 48 h; AID 2288; 340,000 tested, under 10 active; active = well fitted rising curve with a large enough effect; inconclusive = small, poorly fitted or top-dose-only effect; inactive = no such curve, though single readings can be large or run the other way;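 also: % of control where 0% means no effect; miR-21 action dims this reporter so a rising signal means less miR-21 action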
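Compounds were titrated across several concentrations (up to approximately 40 uM) and incubated 48 hours with HeLa miR-21-FLuc reporter cells (miR-21 target sequence downstream of FLuc, endogenous miR-21). Readout was firefly luciferase luminescence after lytic detection reagent.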
An asterisk follows results filed as active; ? = inconclusive. This is a subset (hit frequency here may not be typical).

molecule,miR-21 reporter
COc1ccc(OCC(=O)Nc2nc(-c3ccc(Br)cc3)ns2)cc1,-37.1%
CC(=O)c1ccc(NC(=O)c2nc(-c3ccccc3)n(-c3ccccc3)n2)cc1,2.2%
CCOc1ccc(-c2nonc2NC(=O)c2ccc(C)cc2)cc1OCC,-2.4%
Cc1cc(C)cc(NC(=O)CCS(=O)(=O)c2cccc3nsnc23)c1,-2.8%
Cc1ccc(-c2c(C(=O)N3CCN(c4cccc(C)c4C)CC3)oc(=O)c3ccccc23)cc1,16.6%
CCOc1ccc(N2CC(NC(=O)c3ccc(Cl)cc3)CC2=O)cc1 (stereo not given),7.3%
CCN(Cc1ccccc1)Cc1c(O)ccc2c(=O)c(-c3ccccc3Cl)coc12,5.2%
COc1ccccc1CNC(=O)Cn1cc2c(n1)-c1c(oc(C(=O)N3CCOCC3)c1C)CC2,13.1%
COc1ccc(C)cc1NC(=O)C1COc2ccccc2C1 (stereo not given),-18.7%
Cc1cc(Nc2ccc(Cl)cc2)n2cnnc2n1,-8.0%
COCCNc1ccc(-c2nc(-c3ccncc3)no2)cc1[N+](=O)[O-],-4.1%
COc1ccccc1CNC(=O)c1cc2cc(C)ccc2n1C,16.6%
Cc1nc(-c2ccc(F)cc2)sc1CCNC(=O)C(=O)Nc1ccc2c(c1)OCO2,-27.9%
O=C(OCc1cc(=O)n2nc(-c3cccs3)sc2n1)c1ccc(Cl)cc1,-1.1%
Cc1ccc(-c2c(C(=O)Nc3ccccc3F)oc(=O)c3ccccc23)cc1,-0.5%
Cc1ccc(-c2nnc3ccccc3c2C(=O)Nc2ccc(C)c(F)c2)cc1,-39.9%
COC(=O)c1cc2sccc2n1Cc1c(C)cc(C)cc1C,-2.6%
CCOc1ccc(CNS(=O)(=O)c2ccc(-c3coc(C)n3)cc2)cc1OC,15.2%
COc1ccccc1NC(=O)c1sc2ncn(Cc3ccccc3Cl)c(=O)c2c1C,1.7%
CCc1ccc(NC(=O)CSc2ncc(S(=O)(=O)c3cc(C)ccc3C)c(=O)[nH]2)cc1,0.5%
O=C(NCc1ccc(F)cc1)c1cc(Sc2ccc(F)cc2F)nc2ccccc12,6.4%
Cc1ccc2c(c1)c1c(c(=O)n(Cc3ccccc3)c(=O)n1Cc1cccc(C(F)(F)F)c1)n2C,-1.1%
COc1ccc(NC(=O)CN2C(=O)c3cccnc3Sc3ccccc32)cc1OC,-30.6%
Cc1ccccc1NC(=O)CSc1ccc(-c2cccs2)nn1,7.5%
Cc1nc(SCC(=O)Nc2ccccc2F)[nH]c(=O)c1Cc1ccccc1,-5.1%
Cc1cc(C)cc(OCC(=O)Nc2ccc(-c3nc4ccccc4o3)cc2)c1,-11.6%
Cc1cc(C)cc(C(=O)N2CC(=O)Nc3ccc(C)cc3C2c2ccccc2)c1 (stereo not given),18.5%
Cc1ccc(C)c(Nc2nc3c(S(=O)(=O)c4ccc(Br)cc4)nnn3c3ccsc23)c1,?
CCOc1cc(C(=O)Nc2ccc(-c3cn4cccnc4n3)cc2)cc(OCC)c1OCC,9.8%
O=C(CCC1N=C2c3ccccc3N=C(SCc3ccccc3F)N2C1=O)NCc1ccccc1 (stereo not given),-3.0%

(more compounds)
compound	miR-21 reporter
CCc1cnc2c(c1SCC(=O)N1CCC(C)CC1)c(=O)n(C)c(=O)n2C	5.4%
COc1cc(NC(=O)CSc2nc3nc(C)c(Cc4ccccc4Cl)c(C)n3n2)cc(OC)c1	2.9%
COc1ccc(NC(=O)CCn2nc(-c3ccccc3OC)c3c(C)cc(C)nc32)cc1	5.8%
Cc1cc(C)cc(NC(=O)C2CCCN(c3nnc(C)c4c(C)n(-c5ccccc5)nc34)C2)c1 (stereo not given)	20.0%
CCc1ccccc1NC(=O)c1cc(S(=O)(=O)NCCc2ccc(OC)c(OC)c2)ccc1F	20.0%
CC(C)(C)OC(=O)N1CCC(c2c(C(=O)N3CCN(c4ccccc4F)CC3)cnn2C(C)(C)C)CC1	13.7%
CC(C)OC(=O)c1ccc(NC(=O)CSc2nc(-c3cccs3)cc(C(F)(F)F)n2)cc1	0.9%
Cc1cc(F)ccc1NC(=O)CCS(=O)(=O)c1ccc2c(c1)NC(=O)CO2	-11.2%

(more compounds)
compound	miR-21 reporter
CCOC(=O)c1c(C)[nH]c(C)c1S(=O)(=O)N1CCCC(C(=O)NCc2cccc(OC)c2)C1 (stereo not given)	-1.2%
CCC(C(=O)OCc1cc(=O)n2nc(CCOC)sc2n1)c1ccccc1 (stereo not given)	-3.0%
CC(Oc1ccc(F)cc1)C(=O)N1CCC(c2nc3ccccc3s2)CC1 (stereo not given)	28.9%
CCn1cc(S(=O)(=O)c2cccc(Cl)c2)c(=O)c2cc(F)c(N3CCN(c4ccccc4)CC3)cc21	3.2%
COc1cc2c(=O)n(Cc3ccccc3Cl)c(=O)n(CC(=O)Nc3ccc(C)c(C)c3)c2cc1OC	4.0%
COc1ccc(-n2nc(C(=O)Nc3ccc(Cl)cn3)c3c4ccccc4n(C)c3c2=O)cc1Cl	-1.0%
COC(=O)c1ccc(C(=O)OC)c(NC(=O)c2c(-c3ccccc3)c(-c3ccccc3)nn(C)c2=O)c1	2.4%
O=C(Cc1ccccc1)NC1CC(=O)N(c2ccccc2)C1 (stereo not given)	-0.3%

The listing continues:
compound	miR-21 reporter
Cc1cn2c(=O)c(S(=O)(=O)NCCc3ccc(Cl)cc3)c(C)nc2s1	-2.6%
COC(=O)C1=C(c2ccccc2)c2ccccc2S(=O)(=O)N1CC(=O)Nc1ccc(F)c(F)c1	6.8%
CCN(CC)S(=O)(=O)c1ccc2c(c1)c(=O)c(C(=O)N1CCN(c3cccc(C)c3)C(C)C1)cn2C (stereo not given)	-5.7%
Cc1ccccc1Cn1nnc2sc3c(c2c1=O)CCCC3	-14.9%
Cc1ccc(S(=O)(=O)C(CNS(=O)(=O)c2ccc(F)c(C)c2)c2cccs2)cc1 (stereo not given)	7.2%
CCOc1ccc(-n2ccnc2SCC(=O)Nc2cccc3ccccc23)cc1	4.1%
COc1cccc(C(c2sc3nc(-c4ccco4)nn3c2O)N2CCC(O)CC2)c1 (stereo not given)	-20.7%
Cc1ccc(NC(=O)NCCOCCn2c(=O)oc3ccccc32)cc1C	14.5%

(further entries)
compound	miR-21 reporter
COc1ccc(CNC(=O)C(=O)NCC(c2ccco2)S(=O)(=O)c2ccc(Cl)cc2)cc1 (stereo not given)	0.1%
COc1cccc(CNC(=O)CCCN2C(=O)CSc3c2c(C)nn3-c2ccccc2)c1	21.0%
Cc1ccc(NC(=O)Cn2c(=O)n(CCCCC(=O)NCCc3ccc(Cl)cc3)c(=O)c3ccccc32)cc1	-1.8%
Cc1oc2ncn(C)c(=O)c2c1C(=O)NCCCN1CCCCC1C (stereo not given)	10.0%
O=C(NCCc1ccccc1)c1cc(Sc2ccc(F)cc2F)nc2ccccc12	-0.2%
CCCCN(CC)C(=O)CCNS(=O)(=O)c1ccc2c(c1)c(=O)n(C)c(=O)n2C	-2.3%
O=C(c1ccc2c(Cl)c3c(nc2c1)CCCC3)N1CCN(c2cccc(Cl)c2)CC1	0.0%
COc1c(C)cc(S(=O)(=O)NCCc2c(C)[nH]c3ccccc23)c(C)c1C	?

(list continues)
compound	miR-21 reporter
Cc1cc(C)cc(-n2c(SCC(=O)N3CCCCC3)nc3c([nH]c4ccccc43)c2=O)c1	1.9%
CCN1CCN(c2cc3c(cc2F)c(=O)c(S(=O)(=O)c2cc(C)cc(C)c2)cn3CC)CC1	-2.2%
O=C(NCCc1ccccc1)c1ccc2c(c1)N(Cc1ccc(F)cc1)C(=O)c1ccccc1S2	-8.3%
COc1cc(CNCCSc2nnnn2C)ccc1OCc1ccc(Cl)cc1Cl	23.6%
Cc1ccc(CNC(=O)c2ccc3c(=O)n(-c4ccccc4)c(=O)[nH]c3c2)cc1	-13.5%
CCOc1ccc(C(=O)c2cn(CC(=O)Nc3ccc4c(c3)OCO4)c3ccc(OCC)cc3c2=O)cc1	3.9%
COc1cccc(CNC(=O)c2nn(-c3ccc(C)cc3)c(=O)c3c2c2ccccc2n3C)c1	-4.2%
O=C(CC(NCc1cccnc1)C(=O)O)Nc1ccc(F)cc1 (stereo not given)	-3.2%

(more compounds)
compound	miR-21 reporter
Cc1cc(C)cc(NC(=O)CN2C(=O)c3ccccc3Sc3ncccc32)c1	0.9%
CC1CCN(c2ncnc3c2c(-c2ccccc2)cn3-c2ccc(Br)cc2)CC1	1.1%
COC(=O)c1sccc1S(=O)(=O)N(CC(=O)Nc1cccc(C)c1C)c1ccc(C)c(C)c1	12.4%
Cc1oc2c(C)c3oc(=O)c(CCC(=O)N4CCCCC4)c(C)c3cc2c1C	9.7%

Screening results deposited in PubChem by National Center for Advancing Translational Sciences (NCATS).
